Shh pathway inh = Hedgehog pathway signaling inhibitors, primary screen, luminescence, Shh-LIGHT2 cells, Gli-luciferase | Shh-LIGHT2 Gli-luciferase reporter, 30 h | inhibition, % (no concentration beside the values) | actives 2.1% (n = 22,000) | AID 2313, 2010;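 active = replicate mean of 65% or more; inconclusive = mean lower but half the replicates past it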;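 note: pathway switched on by Shh-conditioned medium diluted 1 in 25 in low serum; 100 nL library stock added to about 40 µL; 0% = median of neutral wells and 100% = positive control level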
YB-1 expr inh = inhibitors of YB-1 gene expression, primary screen, cell-based, fluorescence; U2OS, qRT-PCR YB-1 vs CDIP delta delta Cp, 16 h; active compounds read high; zero = DMSO, each unit about twofold; actives 0.37% (n = 30,000); delta delta Cp (YB-1 minus CDIP) (no concentration beside the values);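 active = delta delta Cp rounded down to an integer at or above 3, about 3 SD of DMSO wells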;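 note: higher means less YB-1 transcript or more CDIP transcript relative to DMSO; stock transfer was 100 nL into about 100 µL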
PD-1 reversal = activators reversing PD-1 mediated T-cell inhibition, primary screen, luminescence, primary human CD4 T cells, PD-L1 beads | CellTiter-Glo 96 h | activation, % (concentration not given with the values) | 29,000 tested, under 10 active | AID 2316, 2010;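 active = replicate mean of 50% or more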;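 note: 0% = median vehicle wells and 100% = positive control; 100 nL library stock added to about 50 µL; numbers are from one replicate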
MITF inhib = inhibitors of MITF, primary screen, MITF inhibitor project, cell-based, luminescence | TRPM1 promoter luciferase, 24 h | actives 0.28% (n = 37,000) | inhibition, % (concentration not given with the values);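 active = most replicates at 85% or more, or half of them and the mean; inconclusive = half reach 85% but not the mean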;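 note: human melanocyte line stably carrying TRPM1 promoter luciferase reporter; 0% = vehicle wells and 100% = a positive control; the first replicate is given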
* marks the source's active call; other numbers are inactive results; ? = inconclusive; . = no result given. These rows are one share of the data; count on the stated rates, not on these rows.

compound | YB-1 expr inh | MITF inhib | PD-1 reversal | Shh pathway inh
COc1ccc(NC(=O)N(C)C[C@H]2Oc3ccc(NS(=O)(=O)c4ccc(F)cc4)cc3CC(=O)N([C@@H](C)CO)C[C@H]2C)cc1 | -0.22 | -23 | -0.2 | -3
C[C@H](CO)N1C[C@H](C)[C@H](CN(C)Cc2ccc(Cl)c(Cl)c2)Oc2ccc(NC(=O)Cc3ccccc3)cc2CC1=O | 0.23 | -3 | 1.5 | 19
C[C@H]1CN([C@@H](C)CO)C(=O)c2cccc(NC(=O)C3CC3)c2O[C@H]1CN(C)S(=O)(=O)c1ccc(F)cc1 | -0.14 | 5 | . | 2
COc1ccc(CCNC(=O)c2ccc3c(=O)n(CC4CCCO4)c(=S)[nH]c3c2)cc1OC (configuration not stated) | -0.46 | -6 | 5.5 | -20
O=C(CCO)c1ccc(O)cc1 | 0.63 | . | . | 22
C[C@H](CO)N1C[C@H](C)[C@@H](CN(C)Cc2ccccc2)Oc2ccc(NC(=O)C3CCCCC3)cc2C1=O | 0.054 | -2 | . | 17
C[C@H]1CN([C@@H](C)CO)C(=O)c2cc(NS(=O)(=O)c3ccccc3)ccc2O[C@@H]1CN(C)Cc1ccc(C(=O)O)cc1 | -0.019 | -9 | 2.5 | .
C[C@H](CO)N1C[C@H](C)[C@@H](CN(C)Cc2ccccc2)Oc2c(NC(=O)CCCCCC(=O)Nc3ccccc3N)cccc2C1=O | -0.24 | 42 | -2.5 | .
CC(C)NC(=O)Nc1cccc2c1O[C@H](CN(C)C(=O)Nc1ccccc1)[C@H](C)CN([C@@H](C)CO)C2=O | -0.34 | 4 | . | -10
Cn1c(SCC(=O)Nc2ccc(Cl)cc2Cl)nc2ccccc2c1=O | . | 19 | -4.2 | .
CC(C)NC(=O)N(C)C[C@H]1Oc2ccc(NC(=O)Cc3ccccc3)cc2CC(=O)N([C@@H](C)CO)C[C@@H]1C | -0.62 | -19 | -0.1 | 0
Cc1ccc(S(=O)(=O)Nc2ccc3c(c2)C(=O)N([C@@H](C)CO)C[C@H](C)[C@@H](CN(C)C)O3)cc1 | -0.11 | -1 | 0.7 | -17
COc1ccc(S(=O)(=O)Nc2ccc3c(c2)CC(=O)N([C@H](C)CO)C[C@@H](C)[C@H](CN(C)Cc2ccc(Cl)c(Cl)c2)O3)cc1 | -0.15 | 12 | -0.4 | 37
c1ccc(N2CCN(CCCOc3ccc4c(c3)OCO4)CC2)cc1 | -0.61 | 8 | . | 20
Cc1cc(=O)[nH]c(SCCOc2cccc(Cl)c2)n1 | . | -21 | 2.9 | .
CC1(C)CC(=O)C2=C(C1)N(Cc1ccco1)C(=O)NC2(C(F)(F)F)C(F)(F)F | -0.25 | -8 | 0.7 | -66
COc1ccc(NC(=O)N(C)C[C@@H]2Oc3ccc(NC(=O)NC(C)C)cc3CC(=O)N([C@H](C)CO)C[C@H]2C)cc1 | -0.071 | -9 | . | 1
OCC1CCCN1CC1CC1 (configuration not stated) | -0.33 | -4 | -0.1 | -34
O=C(O)CCc1ccc(-c2cccs2)n1-c1cc(Cl)ccc1O | . | 15 | -0.2 | .
C[C@@H]1CN([C@@H](C)CO)C(=O)c2cccc(NC(=O)C3CC3)c2O[C@H]1CN(C)Cc1ccc(C(=O)Nc2ccccc2N)cc1 | -0.11 | 17 | -0.8 | .
COc1ccc(CSCC(N)C(=O)O)cc1Br (configuration not stated) | . | -46 | 0.3 | .
O=C(Cn1c(COc2ccccc2)nc2ccccc21)N1CCOCC1 | . | -9 | 2.7 | .
CCOC(=O)c1c(O)c(O)c(C(=O)OCC)n1-c1ccc(OC)cc1 | 0.2 | 10 | -0.2 | -5
Cc1noc(C)c1NC(=O)N(C)C[C@H]1Oc2ccc(NC(=O)Cc3ccccc3)cc2C(=O)N([C@@H](C)CO)C[C@@H]1C | 0.65 | 8 | 1.1 | -14
CCOc1ccc(NC(=O)Cn2ccc([N+](=O)[O-])n2)cc1 | . | -16 | 3.0 | .
C[C@H]1CN([C@@H](C)CO)C(=O)c2cc(NS(C)(=O)=O)ccc2O[C@H]1CN(C)Cc1ccc(Oc2ccccc2)cc1 | 0.16 | -7 | 2.8 | .
CC(C)NC(=O)Nc1ccc2c(c1)CC(=O)N([C@@H](C)CO)C[C@@H](C)[C@@H](CN(C)S(=O)(=O)c1cccs1)O2 | 0.18 | -1 | . | -4
CCc1ccccc1NC(=O)CNS(=O)(=O)c1ccc(C)cc1 | . | 15 | 2.3 | .
Cc1noc(C)c1NC(=O)N(C)C[C@@H]1OCCCC[C@@H](C)Oc2ccc(NC(=O)Nc3ccccc3)cc2C(=O)N([C@H](C)CO)C[C@@H]1C | 0.19 | -4 | 0.9 | -6
CCCCCCCCNC(C)C(O)c1ccc(SC(C)C)cc1 (configuration not stated) | -0.12 | 11 | . | 57
CC(C)=CCC/C(C)=C/CC/C(C)=C/Cc1c(C)cc(O)cc1O | 0.24 | 7 | 2.8 | -27
C[C@H](CO)N1C[C@H](C)[C@@H](CN(C)Cc2ccccc2)Oc2ccc(NC(=O)NC3CCCCC3)cc2C1=O | 0.11 | -2 | 0.2 | -31
NC(=O)COc1ccc(C2NC(=S)NC(c3ccccc3)=C2C(=O)c2ccccc2)cc1 (configuration not stated) | . | -3 | -0.6 | .
C[C@H](CO)N1C[C@H](C)[C@H](CN(C)Cc2ccc(Cl)c(Cl)c2)Oc2ccc(NS(=O)(=O)c3cn(C)cn3)cc2CC1=O | 13* | 0 | 0.0 | 29
C[C@@H]1CN([C@@H](C)CO)C(=O)Cc2cc(NS(=O)(=O)c3ccc(Cl)cc3)ccc2O[C@@H]1CN(C)Cc1ccncc1 | -0.28 | -8 | -0.2 | -8
O=C(CCCCC(=O)Nc1c(I)cc(I)c(C(=O)O)c1I)Nc1c(I)cc(I)c(C(=O)O)c1I | 0.021 | 2 | 4.7 | ?
C[C@@H]1CCCCO[C@@H](CN(C)C(=O)NC2CCCCC2)[C@@H](C)CN([C@H](C)CO)C(=O)c2cc(N(C)C)ccc2O1 | -0.37 | 1 | . | -10
COc1ccc(S(=O)(=O)Nc2ccc3c(c2)C(=O)N([C@H](C)CO)C[C@H](C)[C@H](CN(C)C(=O)Nc2ccc4c(c2)OCO4)OCCCC[C@@H](C)O3)cc1 | -0.044 | 1 | -0.4 | .
C[C@@H]1CCCCO[C@H](CN(C)C(=O)Nc2ccc(C(F)(F)F)cc2)[C@@H](C)CN([C@H](C)CO)C(=O)c2cc(NC(=O)NC3CCCCC3)ccc2O1 | 0.039 | 5 | -1.2 | 14
C[C@H](CO)N1C[C@H](C)[C@H](CN(C)C)Oc2ccc(NS(=O)(=O)c3cn(C)cn3)cc2CC1=O | -0.089 | 2 | . | -8

One compound at a time (already shown). Values in the order: YB-1 expr inh	MITF inhib	PD-1 reversal	Shh pathway inh
Profile of O=C(Cn1c(COc2ccccc2)nc2ccccc21)N1CCOCC1 : .	-9	2.7	.
Profile of NC(=O)COc1ccc(C2NC(=S)NC(c3ccccc3)=C2C(=O)c2ccccc2)cc1 (configuration not stated) : .	-3	-0.6	.
Profile of CC(C)NC(=O)Nc1ccc2c(c1)CC(=O)N([C@@H](C)CO)C[C@@H](C)[C@@H](CN(C)S(=O)(=O)c1cccs1)O2 : 0.18	-1	.	-4

Later entries:
compound | YB-1 expr inh | MITF inhib | PD-1 reversal | Shh pathway inh
C[C@@H]1CN([C@@H](C)CO)C(=O)Cc2cc(NC(=O)CCC(F)(F)F)ccc2O[C@@H]1CN(C)S(=O)(=O)c1ccccc1 | -0.16 | -2 | -2.4 | -16
C[C@H]1CN([C@@H](C)CO)C(=O)c2cc(NC(=O)Nc3ccc(F)cc3)ccc2O[C@@H]1CN(C)C(=O)Nc1ccc2c(c1)OCO2 | 0.079 | -6 | 0.7 | -11
C[C@H](CO)N1C[C@H](C)[C@@H](CN(C)Cc2ccc3c(c2)OCO3)Oc2ccc(NC(=O)c3ccncc3)cc2C1=O | -0.24 | -6 | -2.6 | .
C[C@@H]1CN([C@H](C)CO)C(=O)Cc2cc(NS(=O)(=O)c3ccc(F)cc3)ccc2O[C@H]1CN(C)S(=O)(=O)c1ccccc1 | -0.23 | -5 | -0.9 | 18
N#Cc1c(F)cccc1NCc1cccs1 | 0.24 | -74 | 0.5 | 11
C[C@@H]1CN([C@H](C)CO)C(=O)c2cc(NC(=O)Nc3ccc4c(c3)OCO4)ccc2O[C@H]1CN(C)C(=O)Nc1ccc(C(F)(F)F)cc1 | 0.12 | 28 | -0.2 | 0
Cc1noc(C)c1S(=O)(=O)Nc1ccc2c(c1)C(=O)N([C@@H](C)CO)C[C@@H](C)[C@@H](CN(C)CC1CCCCC1)O2 | . | -4 | -0.2 | 33
C[C@H]1CN([C@@H](C)CO)C(=O)c2cccc(NC(=O)c3ccncc3)c2O[C@@H]1CN(C)S(=O)(=O)c1ccc(Cl)cc1 | -0.11 | -1 | 1.4 | -19
C[C@@H]1CCCCO[C@@H](CN(C)C(=O)Nc2cccc3ccccc23)[C@@H](C)CN([C@H](C)CO)C(=O)c2cc(NC(=O)Nc3ccccc3)ccc2O1 | 0.045 | 18 | . | -10
C=C[C@](C)(O)CC/C=C(\C)C(=O)O[C@@H]1[C@@H]2O[C@]2(C)[C@H]2[C@H](O[C@@H]3O[C@H](CO)[C@@H](O)[C@H](O)[C@H]3O)OC=C[C@@]12OC(=O)/C(C)=C/CC[C@](C)(O)C=C | -0.53 | -2 | 2.1 | -26
C[C@H](CO)N1C[C@H](C)[C@H](CN(C)C(=O)Nc2ccc(C(F)(F)F)cc2)Oc2ccc(NC(=O)CCN3CCOCC3)cc2C1=O | -0.12 | -2 | 0.6 | -36
COc1ccc(NC(=O)N(C)C[C@@H]2Oc3c(NC(=O)c4ccc(-c5nccs5)cc4)cccc3C(=O)N([C@@H](C)CO)C[C@@H]2C)cc1 | 0.08 | -10 | 0.5 | -19
C[C@@H]1CN([C@H](C)CO)C(=O)c2cc(NC(=O)Cn3cnnn3)ccc2O[C@H]1CN(C)C(=O)Nc1ccc2c(c1)OCO2 | -0.039 | 7 | 0.3 | .
COC(=O)C1=C(C)N=c2s/c(=C/c3ccc(OC)cc3)c(=O)n2C1c1cccs1 (configuration not stated) | -0.23 | -14 | 0.0 | -39
Cc1ccc(S(=O)(=O)NCC(=O)N2CCN(c3ccccn3)CC2)cc1 | . | 7 | 0.5 | .
COc1ccc(NC(=O)N(C)C[C@H]2Oc3ccc(NC(=O)C4CCCCC4)cc3CC(=O)N([C@H](C)CO)C[C@H]2C)cc1 | 0.084 | 38 | -1.8 | -26
C[C@H]1CN([C@@H](C)CO)C(=O)Cc2cc(NS(=O)(=O)c3ccccc3)ccc2O[C@H]1CN(C)CC1CCCCC1 | 0.22 | -1 | -2.6 | -10
Cc1ccc([N+](=O)[O-])cc1N(CC(=O)O)S(C)(=O)=O | . | 10 | 1.0 | .
O=C1C(=O)N(Cc2ccco2)C(c2cccc(Oc3ccccc3)c2)C1C(=O)c1cccs1 (configuration not stated) | . | -9 | 1.7 | .
O=C(Cn1c2ccccc2n2nc(-c3ccco3)nc12)c1ccccc1 | . | 20 | -2.5 | .
C[C@@H]1CN([C@@H](C)CO)C(=O)c2cc(NC(=O)Nc3cccc4ccccc34)ccc2O[C@@H]1CN(C)Cc1ccc(Oc2ccccc2)cc1 | -0.32 | 7 | . | .
O=C(Cc1ccccc1)NC1CCN(C(=O)c2cccs2)CC1 | -0.055 | 2 | 0.2 | -19
Cc1coc(C)c1C(=O)CC1(O)C(=O)N(Cc2ccc(Cl)cc2)c2ccccc21 (configuration not stated) | . | 6 | -1.6 | .
C[C@H](CO)N1C[C@H](C)[C@@H](CN(C)C(=O)Nc2ccc3c(c2)OCO3)Oc2ccc(NC(=O)CCCCCC(=O)Nc3ccccc3N)cc2C1=O | -0.24 | 0 | 0.9 | .
c1ccc(Oc2cccc(Oc3ccccc3)c2)cc1 | -0.51 | -33 | 2.8 | .
NC(=O)C1(N2CCCCC2)CCN(CC(=O)Nc2ccc(F)c(Cl)c2)CC1 | . | -5 | -3.2 | .
COc1ccc(S(=O)(=O)N(C)C[C@H]2Oc3ccc(NS(=O)(=O)c4cn(C)cn4)cc3C(=O)N([C@@H](C)CO)C[C@@H]2C)cc1 | 0.074 | -1 | 1.7 | -51
C[C@@H]1CCCCO[C@@H](CN(C)C(=O)Nc2cccc3ccccc23)[C@@H](C)CN([C@H](C)CO)C(=O)c2cc(NC(=O)C3CCCCC3)ccc2O1 | -0.032 | 1 | . | 39
CC(C)c1ccc(OCC(O)Cn2cnc3ccccc32)cc1 (configuration not stated) | . | 16 | -5.6 | .
CC(C)Cn1c(=O)c2cc3c(=O)n(CC(C)C)c(=O)c3c(C(=O)c3ccc(Cl)cc3)c2c1=O | -0.43 | -5 | 1.0 | -20
Cc1ccc(C)c(OCCCCSc2ncccn2)c1Cl | . | -73 | 0.3 | .
COc1ccc(NC(=O)Nc2cccc3c2O[C@@H](CN(C)S(=O)(=O)c2ccc(OC)cc2)[C@H](C)CN([C@@H](C)CO)C3=O)cc1 | -0.22 | -9 | -2.1 | -27
